TRPML1 inh = inhibitors of human TRPML1 channel; Q9GZU1; TRPML1-inducible cells, Ca2+ dye fluorescence, FDSS; stronger effect = lower value; inhibition of EC80 agonist-evoked calcium signal; activity change, negative = inhibition, % (test concentration not listed); 0.02% of 390,000 active; in the data active means activity change below about -50%; inconclusive means about -30% to -50%; inactive means above about -30%;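 note: stimulus is agonist 54-4 at its EC80 concentration; % is set by controls: 0 for no effect and ±100 for the full control effect; compound concentration not given in the record; the text of the record puts the active cut at -80%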
Target sequence (Q9GZU1 whole entry, looked up): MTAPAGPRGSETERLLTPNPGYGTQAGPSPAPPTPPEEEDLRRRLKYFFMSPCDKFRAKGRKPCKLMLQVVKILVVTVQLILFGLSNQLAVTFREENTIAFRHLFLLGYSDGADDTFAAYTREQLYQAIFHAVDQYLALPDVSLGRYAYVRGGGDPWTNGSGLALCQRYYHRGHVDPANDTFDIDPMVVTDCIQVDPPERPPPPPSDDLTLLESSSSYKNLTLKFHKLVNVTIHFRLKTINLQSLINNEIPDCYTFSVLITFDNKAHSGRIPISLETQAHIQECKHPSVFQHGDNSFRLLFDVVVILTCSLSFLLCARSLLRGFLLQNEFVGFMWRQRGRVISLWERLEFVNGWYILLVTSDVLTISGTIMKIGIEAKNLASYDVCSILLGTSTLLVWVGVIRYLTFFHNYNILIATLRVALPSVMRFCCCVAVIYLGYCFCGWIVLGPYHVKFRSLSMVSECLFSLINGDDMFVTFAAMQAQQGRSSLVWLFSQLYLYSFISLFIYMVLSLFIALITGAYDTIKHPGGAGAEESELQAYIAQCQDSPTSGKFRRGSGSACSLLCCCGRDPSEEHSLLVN
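Calcium fluorescence in TRPML1-DL cells induced overnight with Tet: a 110 s read after compound pin addition, then a 110 s antagonist read after challenge with 54-4 at 4 uM final (EC80).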
TRPML1 agonist = agonists of human TRPML1 channel. Q9GZU1. TRPML1-expressing cells, Ca2+ dye fluorescence, FDSS; host cell line not named in the record; reference of the full effect not given here. activation, % (concentration not given with the values). 0.12% of 410,000 active. AID 624414; in the data active = activation above about 50%; inconclusive = about 30% to 50%; inactive = below about 30%; note: 0% is about no effect; the text of the record puts the active cut at 80%
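Tet-induced TRPML1-DL cells, 1,500 per well, cultured overnight, were loaded with a no-wash Ca2+ dye for 45–90 min. Calcium fluorescence was recorded on the FDSS for 110 s after compound addition, before the EC80 agonist (4 uM 54-4) was added.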
The depositor's hits bear a star; ? = inconclusive.

canonical_smiles	TRPML1 inh	TRPML1 agonist
CC1=C(C(=O)Nc2ccc(C)cc2C)C(C(C)C)n2nc(SCc3ccccc3Cl)nc2N1 (stereo not given)	2	0.0
Cc1cccc(NC(=O)Nc2cccs2)c1C	-13	-0.3
COc1ccc(OC)c(S(=O)(=O)N2Cc3ccccc3CC2C(=O)Nc2ccc(Cl)cc2)c1 (stereo not given)	-21	3.8
CCc1ccc(NC(=O)CSc2nc3c([nH]c4ccccc43)c(=O)n2C)cc1	5	-0.5
COCCCNC(=O)C1CCCN(c2nn3cc(-c4ccc(C)cc4)nc3s2)C1 (stereo not given)	20	0.4
CCn1cc(C(=O)Nc2ccc(C(C)C)cc2)c2cc(OC)c(OC)cc2c1=O	5	-0.8
CC(C)c1ccc(NC(=O)CSC2=Nc3ccccc3C3=NC(CCC(=O)NCc4ccco4)C(=O)N23)cc1 (stereo not given)	34	-0.5
COC(=O)c1ccccc1NC(=O)CSc1nc2ccccc2nc1Cc1ccccc1OC	-13	1.1
Cc1ccc2c(c1)NC(=O)c1cccnc1O2	-11	0.9
Cc1ccccc1CCNC(=O)c1ccc(NC(=O)N2CC(C)Sc3ccccc32)cc1 (stereo not given)	19	3.0
Cc1ccc(C(=O)n2nc(C)c(S(=O)(=O)N3CCCCCC3)c2C)cc1C	0	0.8
CN1CCN(C(=O)Cn2c(-c3cccs3)cc3ccccc32)CC1	-25	0.3
Cc1nn(-c2ccccc2)c(OC(=O)c2ccccc2Br)c1S(=O)(=O)c1ccccc1	-3	-0.9
CCOc1ccc(N(Cc2ccccc2)C(=O)c2nc(S(C)(=O)=O)ncc2Cl)cc1	2	10.0
CCOc1ccc(-c2cnc(NCc3cccc(Cl)c3)n2C)cc1	1	-0.3
Cc1ccc(CNc2oc(-c3ccc(COc4ccc(Cl)cc4)o3)nc2C#N)cc1	-5	1.1
O=C(c1cccn2c(=O)c3cc(Cl)ccc3nc12)N1CCN(c2ccccc2F)CC1	7	0.1
COc1ccccc1Nc1ncc2c(n1)CCN(CC(C)C)C2	-12	0.9
CCOc1ccc(CCNC(=O)CCCc2nnc3n(CC)c(=O)c4sccc4n23)cc1	-8	0.3
O=C(CN1CCN(Cc2ccccc2Cl)C1=O)NCCc1ccc(Cl)cc1	1	-1.7
CCCCN(CC)CCCNC(=O)Cn1ncc2c3ccccc3n(Cc3ccccc3F)c2c1=O	13	-0.9
CC(C)c1ccc(NC(=O)c2ccc3c(O)c(S(=O)(=O)c4ccccc4)c(=O)[nH]c3c2)cc1	9	-0.2
Cc1cc(C)c2c(-n3cccc3)c(C(=O)NCCCN3CCCCC3)sc2n1	1	-0.6
CCOC(=O)c1cccc(NC(=O)Cn2c(=O)nc(-c3ccccc3)c3ccccc32)c1	2	1.4
Cc1ccc(-n2ncc3c(N4CCCCCC4)ncnc32)cc1C	4	-1.3
O=C(Nc1ccc(Cl)cc1)C1CCN(c2nc3ccccc3n3cccc23)CC1	0	3.3
O=C(CSc1nnc(CNC(=O)c2ccccc2F)n1-c1ccccc1)Nc1ccccc1F	-18	0.9
Cc1oc(-c2cccc(Cl)c2)nc1CN1CCCC(C(=O)N2CCN(c3ccc(F)cc3)CC2)C1 (stereo not given)	?	-0.3
O=C(Nc1cccc(C(F)(F)F)c1)C1CCCN(S(=O)(=O)c2cccc3nsnc23)C1 (stereo not given)	-14	2.5
COc1ccc(Nc2cc(C)c3cc(NC(=O)Cc4ccc(Cl)cc4)ccc3n2)cc1	13	-1.2
CCCOc1ccc(CNC(=O)CCCn2nc(C)c3sc4ccccc4c3c2=O)cc1	12	1.0
O=C(COC(=O)c1cc(-c2cccs2)nc2ccccc12)c1ccccc1	12	0.7
CC(C)(C)OC(=O)N1CCC(c2c(C(=O)NCCCN3CCc4ccccc4C3)cnn2-c2ccccc2)CC1	?	1.1
O=C(CSc1nc(=O)n(CCN2CCOCC2)c2c1CCC2)Nc1cccc(Cl)c1	0	-0.7
COc1ccc(S(=O)(=O)Nc2cc(S(=O)(=O)c3ccccc3)c(O)c(C)c2C)cc1	5	-1.2
COc1ccc(CNC(=O)c2cc3c(-c4ccc(Cl)cc4)nn(C)c3s2)cc1	8	0.8
Cc1cc(C)n(CCc2nc3c4ccccc4nc(SCc4ccc(Cl)cc4)n3n2)n1	16	0.7
O=C(Nc1ccc(F)c(Cl)c1)C1CCN(C(=O)c2ccc(F)cc2)CC1	16	-0.7
CC(=O)c1cccc(NS(=O)(=O)c2c(C(=O)N3CCCCCC3)c(C)n(C)c2C)c1	-1	0.7
CCCOc1ccc(-c2nonc2NC(=O)c2cc(OC)c(OC)c(OC)c2)cc1OCCC	1	4.9
Cc1ccc2oc3c(c(=O)c2c1)C(c1ccccc1F)N(c1ccccn1)C3=O (stereo not given)	-3	0.5
COc1cc(C2C(C(=O)Nc3ccccc3)=C(C)Nc3nnnn32)cc(OC)c1OC (stereo not given)	-4	0.0
Cc1ccc(NC(=O)Nc2nnc(SCC(=O)Nc3ccc(F)cc3F)s2)cc1	-2	-0.3
CCC(C)NC(=O)CCc1c(C)nc2c(c(C)nn2-c2ccc(C)cc2)c1C (stereo not given)	27	0.1
Cc1cccc(NC(=O)C(=O)NCC(c2ccc3c(c2)OCO3)N2CCN(C)CC2)c1C (stereo not given)	-3	-0.2
O=C(Nc1ccc(F)cc1)N1CCN(C(=O)c2nsc3ccccc23)CC1	-25	1.0
O=[N+]([O-])c1ccc(O/N=[N+](\[O-])N2CCN(c3ccccc3)CC2)c([N+](=O)[O-])c1	45	1.5
CCOc1ccc(CNC(=O)c2cc3c(=O)oc4ccc(C)cc4c3s2)cc1	-8	-0.7
O=C(Nc1ccc(N2CCN(c3ccc(F)cc3)CC2)c(C(=O)O)c1)c1ccccc1F	1	0.1
CCc1ccccc1NC(=O)Cn1nnc(C(=O)NCc2ccco2)c1N	-8	-1.0
COc1ccccc1C(=O)Nc1nc2nc(C)cc(=O)n2[nH]1	7	-0.3
Cc1cc2nc(-c3cccc(NC(=O)c4cccc5ccccc45)c3)oc2cc1C	2	0.4
COc1ccc(-c2nc(-c3ccccc3)c(-c3ccc(F)cc3)[nH]2)c(OC)c1C	5	0.1
Fc1ccc(N2CCN(c3ncnc4onc(-c5ccc(Cl)cc5)c34)CC2)cc1	11	-1.2
O=C(CSc1nc2ccccc2nc1Cc1ccc(Cl)cc1)N1CCN(c2ccccc2)CC1	12	1.9
CCOc1ccccc1CN(CCc1ccc2c(c1)OCO2)Cc1cc(OC)c(OC)cc1OC	22	-0.5

The results go on:
canonical_smiles	TRPML1 inh	TRPML1 agonist
COc1cccc(-n2c(=O)c3c(C)c(C)sc3n(CC(=O)NCc3ccccc3)c2=O)c1	-5	2.5
Cn1nccc1C(=O)NCc1ccc2c(c1)CCN2C(=O)c1ccc(Cl)cc1	28	0.8
CCN(Cc1ccccc1)C(=O)Cn1c(=O)n(Cc2ccccc2)c(=O)c2c1c1cc(OC)ccc1n2C	-25	1.1
Cc1cc(Br)ccc1NC(=O)C1CCN(S(=O)(=O)c2ccc(Br)s2)CC1	3	3.0
CC(Nc1ccc(-c2nc(-c3ccccn3)no2)cc1[N+](=O)[O-])c1ccccc1 (stereo not given)	-1	-0.7
COc1ccc(NC(=O)CC(C)S(=O)(=O)c2ccc3c(c2)NC(=O)CO3)cc1OC (stereo not given)	2	0.1
Cc1ccc(CNC(=O)c2ccc3c(c2)nc(C)n3-c2cccc(F)c2)cc1	5	2.9
COc1ccc(NC(=O)CSc2nc3ccccc3n2Cc2cccc(OC)c2)cc1	37	1.6
COc1ccc(OC)c(Nc2nc3ccccc3nc2-n2nc(C)cc2C)c1	-23	1.6
CCOC(=O)c1ccc(NC(=O)Cn2c(=O)cc(C)c3c(C)nn(-c4cccc(F)c4)c32)cc1	-13	2.1
O=C(COc1ccccc1Cl)Nc1ccccc1OCc1cc(=O)n2ccccc2n1	-12	-0.2
Cc1nn(C)c(C)c1S(=O)(=O)N(CC(=O)NCCc1ccc(Cl)cc1)c1ccc(C(C)C)cc1	67	0.7
Cc1nc(-c2cccc(F)c2)sc1CCNC(=O)Cc1ccc(F)cc1	40	2.5
CC(C)c1ccc(NC(=O)c2ccc(F)c(S(=O)(=O)N3CCN(c4ccccc4F)CC3)c2)cc1	11	2.4
CCCOc1ccc(-c2nonc2NC(=O)c2oc3ccc(Cl)cc3c2C)cc1OCCC	-1	0.2
CCOCCCNC(=O)c1[nH]c2cc(OC)ccc2c1Sc1ccccc1	46	0.4

Whole records, looked up by structure. Values in the order: TRPML1 inh, TRPML1 agonist
COc1ccc(OC)c(Nc2nc3ccccc3nc2-n2nc(C)cc2C)c1 in the list: -23, 1.6
O=C(COc1ccccc1Cl)Nc1ccccc1OCc1cc(=O)n2ccccc2n1 in the list: -12, -0.2

(further entries)
canonical_smiles	TRPML1 inh	TRPML1 agonist
Cc1cccc(-c2noc(C3CC(=O)N(c4ccc5c(c4)OCCO5)C3)n2)c1 (stereo not given)	2	1.7
Cc1ccc(C(=O)CSc2nnc3ccc4ccccc4n23)cc1	4	-0.3
Cc1cccc(N(C)c2nc3ccccc3c3nnc(C)n23)c1	-1	0.9
COc1cc(C(=O)NCC(c2ccc3c(c2)OCO3)N2CCOCC2)cc(OC)c1OC (stereo not given)	4	0.4
COCCCNC(=O)CCc1c(C)nc2nc(-c3cc(OC)cc(OC)c3)nn2c1C	19	0.3
CCOC(=O)N1CCC(NC(=O)c2c(C)nn(-c3ccc(C)cc3)c2-n2cccc2)CC1	-8	1.8
Cc1c(CCC(=O)NCCc2ccccc2)c(=O)oc2c(C)c(O)ccc12	4	-1.1
Cc1ccc(C)c(S(=O)(=O)c2cn(Cc3ccccc3)c3cc(F)c(F)cc3c2=O)c1	19	0.6

7 structures already listed, sorted by count of non-hydrogen atoms, lowest first.
canonical_smiles	TRPML1 inh	TRPML1 agonist
Cc1cccc(N(C)c2nc3ccccc3c3nnc(C)n23)c1	-1	0.9
Cc1ccc(C(=O)CSc2nnc3ccc4ccccc4n23)cc1	4	-0.3
Cc1c(CCC(=O)NCCc2ccccc2)c(=O)oc2c(C)c(O)ccc12	4	-1.1
Cc1cccc(-c2noc(C3CC(=O)N(c4ccc5c(c4)OCCO5)C3)n2)c1 (stereo not given)	2	1.7
Cc1ccc(C)c(S(=O)(=O)c2cn(Cc3ccccc3)c3cc(F)c(F)cc3c2=O)c1	19	0.6
COc1cc(C(=O)NCC(c2ccc3c(c2)OCO3)N2CCOCC2)cc(OC)c1OC (stereo not given)	4	0.4
CCCOc1ccc(-c2nonc2NC(=O)c2oc3ccc(Cl)cc3c2C)cc1OCCC	-1	0.2

(further entries)
canonical_smiles	TRPML1 inh	TRPML1 agonist
CCOC(=O)c1c(NC(=O)c2cc(-c3cccc(OC)c3)on2)sc2c1CCCC2	20	-0.5
COC(=O)c1ccccc1NC(=O)CCc1c(C)nc2cc(-c3ccc(Cl)cc3)nn2c1C	-6	-0.1
CCCCN(C)S(=O)(=O)c1ccc(C(=O)Nc2ccc(-c3nc4ccc(C)cc4s3)cc2)cc1	11	-0.6
COc1ccc(C2=NS(=O)(=O)N(C)C(C(=O)Nc3ccc(OC(F)(F)F)cc3)=C2)cc1	17	1.7
CCC(CC)C(=O)Nc1ccc2nc(SCC(=O)N3CCOCC3)sc2c1	-1	2.3
O=C(CCn1c(=O)c2cccn2c2cccnc21)N1CCN(c2ccccc2F)CC1	-2	0.2
CCOc1ccc(C(=O)NCc2nc3cccnc3n2Cc2cccc(OC)c2)cc1	-13	-0.7
O=C(NC1CCCCCC1)C1CCN(C(=O)N2CCOc3ccc(Cl)cc32)CC1	-22	1.0
CCOc1ccc(OCC)c(NC(=O)c2cc(-c3cccs3)nc3ccccc23)c1	-16	0.1
O=C(NCC(c1cccnc1)N1CCOCC1)C(=O)Nc1ccc(F)cc1 (stereo not given)	-8	0.0
CCCCNS(=O)(=O)c1ccc2nc(NC(=O)c3cccnc3)sc2c1	1	-0.4
Cc1ccc(NC(=O)c2oc3ccc(S(=O)(=O)N4CCC5(CC4)OCCO5)cc3c2C)cc1Cl	-11	1.6
Cc1cc(Nc2ccc(Br)cc2)n2nc(-c3ccccc3C)nc2n1	43	0.0
Cc1ccc(Nc2c(-c3cccnc3)nc3ccc(C)cn23)cc1	42	1.5
CCc1cc(C(=O)Nc2c(C)nn(Cc3ccccc3Cl)c2C)no1	-13	-0.8
CCCOc1ccc(C2=NC(c3ccncc3)=Nc3ccc(C)cc3N2)cc1	23	1.7

Compound activity from PubChem.

An excerpt; count on the stated rates, not on these rows.
